Ran importin: RanGTP/importin-beta interaction disruptors – biochemical, CFP-Ran/YFP-importin-beta FRET, RCC1, cell-free, primary screen (AID 434961); CFP-Ran/YFP-importin-beta FRET, cell-free; stronger effect = higher value; inhibition, %; 7,700 compounds, 0.2% hits;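 active means more than half of the replicate wells above 15% inhibition; inconclusive means exactly half above it; inactive means fewer than half above it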;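 further: 0% = DMSO wells and 100% inhibition = RanGDP control wells on each plate; stock of unstated strength diluted about 400-fold; mean of two wells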
* hit, by the source's call; ? = inconclusive. Not all compounds are listed (hit frequency here may not be typical).

> CC(C)NC(=O)N(C)C[C@@H]1OCCCC[C@@H](C)Oc2ccc(NC(=O)Nc3cccc4ccccc34)cc2C(=O)N([C@@H](C)CO)C[C@H]1C
  Ran importin = -4.5
> COc1ccc(C#Cc2cnc3c(c2)C(=O)N([C@H](C)CO)C[C@H](C)[C@H](CN(C)S(=O)(=O)c2ccccc2)O3)cc1OC
  Ran importin = -1.6
> CC(C)NC(=O)Nc1ccc2c(c1)C(=O)N([C@@H](C)CO)C[C@H](C)[C@@H](CN(C)Cc1ccccc1)OCCCC[C@@H](C)O2
  Ran importin = -1.8
> C[C@@H]1CN([C@@H](C)CO)C(=O)c2cc(NS(=O)(=O)c3cn(C)cn3)ccc2O[C@@H](C)CCCCO[C@@H]1CN(C)C(=O)CCCN(C)C
  Ran importin = -3.3
> Cc1noc(C)c1S(=O)(=O)N(C)C[C@@H]1OCCCC[C@H](C)Oc2ccc(NC(=O)NC(C)C)cc2C(=O)N([C@H](C)CO)C[C@@H]1C
  Ran importin = ?
> C[C@H]1CN([C@@H](C)CO)C(=O)c2cc(NC(=O)NC3CCCCC3)ccc2O[C@@H]1CN(C)Cc1ccc(C(=O)O)cc1
  Ran importin = 0.3
> C[C@H]1CN([C@@H](C)CO)C(=O)c2cc(NS(C)(=O)=O)ccc2O[C@@H]1CN(C)C(=O)NC1CCCCC1
  Ran importin = -1.0
> Cc1noc(C)c1NC(=O)N(C)C[C@H]1OCCCC[C@@H](C)Oc2ccc(NS(=O)(=O)c3cccs3)cc2C(=O)N([C@H](C)CO)C[C@H]1C
  Ran importin = -7.0
> COc1ccc(S(=O)(=O)Nc2cccc3c2O[C@H](CN(C)S(=O)(=O)c2cccs2)[C@H](C)CN([C@H](C)CO)C3=O)cc1
  Ran importin = -2.7
> C[C@@H]1CN([C@H](C)CO)C(=O)Cc2cc(N(C)C)ccc2O[C@@H]1CN(C)Cc1ccc(C(=O)O)cc1
  Ran importin = 3.7
> C[C@@H]1CN([C@@H](C)CO)C(=O)c2cc(NC(=O)c3ccncc3)ccc2O[C@@H](C)CCCCO[C@@H]1CN(C)C(=O)Cc1ccccc1
  Ran importin = 7.1
> CC(C)NC(=O)Nc1ccc2c(c1)CC(=O)N([C@@H](C)CO)C[C@@H](C)[C@@H](CN(C)S(=O)(=O)c1ccccc1)O2
  Ran importin = 1.4
> C[C@H](CO)N1C[C@H](C)[C@@H](CN(C)S(=O)(=O)c2ccccc2)OCCCC[C@H](C)Oc2ccc(N(C)C)cc2C1=O
  Ran importin = -3.3
> C[C@@H]1CN([C@H](C)CO)C(=O)c2cc(NC(=O)C3CC3)ccc2O[C@H]1CN(C)C
  Ran importin = -3.4
> C[C@@H]1CN([C@@H](C)CO)C(=O)c2cc(N(C)C)ccc2O[C@H]1CN(C)S(=O)(=O)c1cn(C)cn1
  Ran importin = -6.7

> COc1ccc(S(=O)(=O)N(C)C[C@H]2Oc3ccc(NC(=O)Cc4ccccc4)cc3C(=O)N([C@@H](C)CO)C[C@@H]2C)cc1
  Ran importin = 0.9
> C[C@H]1CN([C@@H](C)CO)C(=O)c2cc(NC(=O)NC3CCCCC3)ccc2O[C@H]1CN(C)C
  Ran importin = 1.7
> COc1ccc(S(=O)(=O)N(C)C[C@@H]2Oc3c(NC(=O)NC4CCCCC4)cccc3C(=O)N([C@H](C)CO)C[C@H]2C)cc1
  Ran importin = -1.7
> Cc1noc(C)c1S(=O)(=O)Nc1ccc2c(c1)C(=O)N([C@H](C)CO)C[C@H](C)[C@@H](CN(C)C(=O)CCC(F)(F)F)OCCCC[C@H](C)O2
  Ran importin = -8.0
> C[C@@H]1CCCCO[C@H](CN(C)C(=O)C2CCCCC2)[C@@H](C)CN([C@@H](C)CO)C(=O)c2cc(NC(=O)Nc3ccccc3)ccc2O1
  Ran importin = 6.5
> COc1ccc(CN(C)C[C@@H]2Oc3ccc(NC(=O)Cc4ccccc4)cc3C(=O)N([C@H](C)CO)C[C@@H]2C)cc1
  Ran importin = 0.7
> COc1ccc(S(=O)(=O)N(C)C[C@H]2Oc3c(NS(=O)(=O)c4ccccc4)cccc3C(=O)N([C@@H](C)CO)C[C@H]2C)cc1
  Ran importin = 0.9
> COc1ccc(CN(C)C[C@@H]2Oc3c(NC(=O)Nc4c(C)noc4C)cccc3C(=O)N([C@@H](C)CO)C[C@H]2C)cc1
  Ran importin = 1.9
> CC(C)NC(=O)Nc1ccc2c(c1)C(=O)N([C@@H](C)CO)C[C@@H](C)[C@@H](CN(C)C(=O)Cc1ccccc1)OCCCC[C@@H](C)O2
  Ran importin = -7.4
> Cc1noc(C)c1NC(=O)N(C)C[C@H]1Oc2c(NC(=O)c3ccncc3)cccc2C(=O)N([C@@H](C)CO)C[C@@H]1C
  Ran importin = 2.3
> C[C@@H]1CN([C@H](C)CO)C(=O)c2cc(N(C)C)ccc2O[C@@H]1CN(C)S(=O)(=O)c1cccs1
  Ran importin = 0.5
> CNC[C@H]1Oc2ccc(NC(=O)NC3CCCCC3)cc2C(=O)N([C@@H](C)CO)C[C@H]1C
  Ran importin = -3.9
> C[C@@H]1CN([C@@H](C)CO)C(=O)c2cc(NC(=O)Nc3ccc4c(c3)OCO4)ccc2O[C@@H](C)CCCCO[C@H]1CN(C)Cc1ccccc1
  Ran importin = -3.5
> C[C@H](CO)N1C[C@H](C)[C@H](CN(C)Cc2ccc(C(F)(F)F)cc2)Oc2c(NC(=O)C3CCOCC3)cccc2C1=O
  Ran importin = -0.6
> C[C@H]1CN([C@@H](C)CO)C(=O)c2cc(NC(=O)Cc3cn(C)c4ccccc34)ccc2O[C@@H]1CN(C)C(=O)NC1CCCCC1
  Ran importin = -0.7

Rewritten as tab-separated lines: part of the list above.
smiles	Ran importin
CC(C)NC(=O)Nc1ccc2c(c1)C(=O)N([C@@H](C)CO)C[C@@H](C)[C@@H](CN(C)C(=O)Cc1ccccc1)OCCCC[C@@H](C)O2	-7.4
Cc1noc(C)c1NC(=O)N(C)C[C@H]1Oc2c(NC(=O)c3ccncc3)cccc2C(=O)N([C@@H](C)CO)C[C@@H]1C	2.3
C[C@@H]1CN([C@H](C)CO)C(=O)c2cc(N(C)C)ccc2O[C@@H]1CN(C)S(=O)(=O)c1cccs1	0.5

(further entries)
> C[C@@H]1CN([C@H](C)CO)C(=O)c2cccc(NC(=O)NC3CCCCC3)c2O[C@@H]1CN(C)C(=O)Nc1cccc2ccccc12
  Ran importin = -2.9
> C[C@@H]1CN([C@@H](C)CO)C(=O)Cc2cc(NC(=O)NC3CCCCC3)ccc2O[C@H]1CN(C)S(=O)(=O)c1cn(C)cn1
  Ran importin = 0.0
> C[C@@H]1CCCCO[C@@H](CN(C)C(=O)c2ccncc2)[C@H](C)CN([C@@H](C)CO)C(=O)c2cc(NS(=O)(=O)c3ccccc3)ccc2O1
  Ran importin = -4.0
> Cc1noc(C)c1S(=O)(=O)N(C)C[C@H]1Oc2ccc(NC(=O)Nc3ccccc3)cc2CC(=O)N([C@@H](C)CO)C[C@@H]1C
  Ran importin = -5.4
> C[C@@H]1CCCCO[C@@H](CN(C)S(=O)(=O)c2cccs2)[C@H](C)CN([C@@H](C)CO)C(=O)c2cc(NC(=O)Cc3ccccc3)ccc2O1
  Ran importin = -3.3
> C[C@H]1CN([C@@H](C)CO)C(=O)c2cccc(NC(=O)Nc3cccc4ccccc34)c2O[C@@H]1CN(C)S(=O)(=O)c1cccs1
  Ran importin = -8.0
> C[C@@H]1CN([C@@H](C)CO)C(=O)CCCn2nncc2CO[C@H]1CN(C)S(=O)(=O)c1ccc(Cl)cc1
  Ran importin = 5.3
> C[C@@H]1CCCCO[C@H](CN(C)C(=O)CCCN(C)C)[C@@H](C)CN([C@H](C)CO)C(=O)c2cc(NC(=O)Cc3ccccc3)ccc2O1
  Ran importin = 2.7
> C[C@@H]1CN([C@@H](C)CO)C(=O)c2cccc(NS(C)(=O)=O)c2O[C@@H]1CN(C)C(=O)Nc1ccccc1
  Ran importin = 1.0
> C[C@@H]1CN([C@@H](C)CO)C(=O)c2cc(NC(=O)CCC(F)(F)F)ccc2O[C@@H](C)CCCCO[C@H]1CN(C)C(=O)Nc1ccccc1
  Ran importin = 4.7
> C[C@H](CO)N1C[C@H](C)[C@H](CN(C)C(=O)Nc2ccc3c(c2)OCO3)Oc2c(NC(=O)C3CCOCC3)cccc2C1=O
  Ran importin = 0.5
> COc1ccc(S(=O)(=O)Nc2cccc3c2O[C@@H](CN(C)S(=O)(=O)c2ccc(F)cc2)[C@H](C)CN([C@@H](C)CO)C3=O)cc1
  Ran importin = -2.7
> C[C@@H]1CN([C@H](C)CO)C(=O)c2cccc(NS(C)(=O)=O)c2O[C@@H]1CN(C)C(=O)Nc1ccc(C(F)(F)F)cc1
  Ran importin = -1.0
> C[C@@H]1CN([C@H](C)CO)C(=O)c2cccc(NS(=O)(=O)c3cccs3)c2O[C@@H]1CN(C)Cc1ccc(C(=O)O)cc1
  Ran importin = ?
> COc1ccc(CN(C)C[C@H]2OCCCC[C@@H](C)Oc3ccc(NC(=O)Nc4c(C)noc4C)cc3C(=O)N([C@H](C)CO)C[C@@H]2C)cc1
  Ran importin = -1.2

> Cc1noc(C)c1S(=O)(=O)N(C)C[C@H]1Oc2ccc(NC(=O)Nc3ccc(C(F)(F)F)cc3)cc2CC(=O)N([C@H](C)CO)C[C@H]1C
  Ran importin = -0.9
> C[C@H]1CN([C@@H](C)CO)C(=O)c2cccc(NC(=O)Nc3ccc(C(F)(F)F)cc3)c2O[C@@H]1CN(C)Cc1ccncc1
  Ran importin = -1.3
> C[C@H](CO)N1C[C@H](C)[C@@H](CN(C)Cc2ccncc2)OCCCC[C@H](C)Oc2ccc(NC(=O)Nc3ccccc3)cc2C1=O
  Ran importin = -0.6
> C[C@H]1CN([C@@H](C)CO)C(=O)Cc2cc(NC(=O)Cc3cn(C)c4ccccc34)ccc2O[C@@H]1CN(C)S(=O)(=O)c1cccs1
  Ran importin = 1.6
> C[C@@H]1CN([C@@H](C)CO)C(=O)c2cccc(NC(=O)NC3CCCCC3)c2O[C@@H]1CN(C)C(=O)Nc1ccc2c(c1)OCO2
  Ran importin = 11
> Cc1noc(C)c1S(=O)(=O)N(C)C[C@H]1OCCCC[C@H](C)Oc2ccc(NC(=O)CCCN(C)C)cc2C(=O)N([C@@H](C)CO)C[C@@H]1C
  Ran importin = -0.6
> Cc1noc(C)c1S(=O)(=O)N(C)C[C@H]1OCCCC[C@@H](C)Oc2ccc(NS(C)(=O)=O)cc2C(=O)N([C@H](C)CO)C[C@@H]1C
  Ran importin = -5.0
> Cc1cc(C(=O)Nc2cccc3c2O[C@@H](CN(C)C(=O)NC2CCCCC2)[C@H](C)CN([C@H](C)CO)C3=O)n(C)n1
  Ran importin = 4.5
> C[C@H]1CN([C@@H](C)CO)C(=O)c2cccc(NS(C)(=O)=O)c2O[C@@H]1CN(C)CC1CC1
  Ran importin = 3.1
> C[C@H]1CCCCO[C@H](CN(C)Cc2ccccc2)[C@@H](C)CN([C@@H](C)CO)C(=O)c2cc(NC(=O)CCCN(C)C)ccc2O1
  Ran importin = -3.7
> CNC[C@H]1Oc2ccc(NC(=O)CCC(F)(F)F)cc2C(=O)N([C@@H](C)CO)C[C@H]1C
  Ran importin = 3.1
> C[C@H](CO)N1C[C@H](C)[C@H](CN(C)Cc2ccccc2)Oc2ccc(NS(=O)(=O)c3cn(C)cn3)cc2C1=O
  Ran importin = 3.7
> CC(C)NC(=O)Nc1ccc2c(c1)C(=O)N([C@@H](C)CO)C[C@@H](C)[C@H](CN(C)Cc1ccccc1)OCCCC[C@H](C)O2
  Ran importin = -4.0
> COc1ccc(S(=O)(=O)Nc2ccc3c(c2)C(=O)N([C@H](C)CO)C[C@@H](C)[C@H](CN(C)S(=O)(=O)c2ccc(OC)cc2)O3)cc1
  Ran importin = -6.8
> Cc1cc(C(=O)Nc2cccc3c2O[C@H](CN(C)S(=O)(=O)c2cccs2)[C@H](C)CN([C@H](C)CO)C3=O)n(C)n1
  Ran importin = 1.9

> C[C@@H]1CN([C@H](C)CO)C(=O)c2cccc(NS(=O)(=O)c3ccccc3)c2O[C@@H]1CN(C)C(=O)NC1CCCCC1
  Ran importin = 2.7
> C[C@@H]1CN([C@@H](C)CO)C(=O)c2cccc(NC(=O)C3CCOCC3)c2O[C@@H]1CN(C)C(=O)Nc1cccc2ccccc12
  Ran importin = 3.8
> C[C@@H]1CN([C@H](C)CO)C(=O)Cc2cc(NC(=O)NC3CCCCC3)ccc2O[C@@H]1CN(C)C
  Ran importin = 0.0
> Cc1cc(C(=O)Nc2cccc3c2O[C@H](CN(C)C(=O)Nc2ccccc2)[C@@H](C)CN([C@H](C)CO)C3=O)n(C)n1
  Ran importin = 1.7
> C[C@H]1CN([C@@H](C)CO)C(=O)Cc2cc(N(C)C)ccc2O[C@@H]1CN(C)S(=O)(=O)c1cccs1
  Ran importin = 4.3
> C[C@@H]1CCCCO[C@H](CN(C)C(=O)CCC(F)(F)F)[C@@H](C)CN([C@H](C)CO)C(=O)c2cc(NC(=O)CCC(F)(F)F)ccc2O1
  Ran importin = 1.3
> COc1ccc(CN(C)C[C@@H]2Oc3ccc(NC(=O)Cc4cn(C)c5ccccc45)cc3C(=O)N([C@@H](C)CO)C[C@@H]2C)cc1
  Ran importin = 5.2
> C[C@@H]1CN([C@@H](C)CO)C(=O)Cc2cc(NC(=O)c3ccncc3)ccc2O[C@@H]1CN(C)Cc1ccc(Cl)c(Cl)c1
  Ran importin = 3.0
> Cc1noc(C)c1NC(=O)Nc1ccc2c(c1)CC(=O)N([C@@H](C)CO)C[C@@H](C)[C@H](CN(C)Cc1ccncc1)O2
  Ran importin = 6.1
> C[C@@H]1CCCCO[C@@H](CN(C)C(=O)Nc2ccccc2)[C@@H](C)CN([C@H](C)CO)C(=O)c2cc(NC(=O)C3CCCCC3)ccc2O1
  Ran importin = -1.1
> Cc1noc(C)c1NC(=O)N(C)C[C@@H]1OCCCC[C@H](C)Oc2ccc(N(C)C)cc2C(=O)N([C@@H](C)CO)C[C@@H]1C
  Ran importin = -2.5
> COc1ccc(CN(C)C[C@@H]2Oc3ccc(NC(=O)C4CC4)cc3C(=O)N([C@@H](C)CO)C[C@@H]2C)cc1
  Ran importin = 3.4
> C[C@@H]1CCCCO[C@H](CN(C)C(=O)CCC(F)(F)F)[C@@H](C)CN([C@H](C)CO)C(=O)c2cc(NC(=O)Cc3ccccc3)ccc2O1
  Ran importin = ?

Bioassay records from PubChem.
